Bioassay records (PubChem)
TAR Tat displ: HIV-1 TAR-Tat binding disruption; HIV-1 TAR RNA, Tat peptide displacement FRET; stronger effect = higher value; z-score (no concentration beside the values); 0.6% of 100,000 active;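 note: score is relative to mean and SD of negative controls; some compounds called inactive have numbers as strong as hits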
CDC25B-CDK2 inh: human CDC25B-CDK2/CyclinA binding inhibition; P30305+P24941; HTRF CDC25B-CDK2/CyclinA binding, anti-His/anti-Flag; stronger effect = higher value; z-score (concentration not given with the values); 0.72% of 94,000 active; AID 1259370;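 note: score is relative to mean and SD of negative controls; strong numbers were not always called active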
Active calls of the source: *; . = not tested or not shown.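 Rule for the calls: active = z-score from 3 up in half or more of its runs; inactive = the rest.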

SMILES	TAR Tat displ	CDC25B-CDK2 inh
O=C(NCCn1cnc2cc(C(=O)NC3CCCC3)ccc21)NCc1cccc(F)c1	-2.6	.
CCN1C(=O)/C(=C2\SC(=S)N(CC(=O)O)C2=O)c2ccccc21	.	-1.64
CCCCc1nnc2sc(NC(=O)c3ccco3)nn12	3.19	-0.37
COc1ccc(-c2csc(-c3cc4c([nH]c3=O)CC(c3ccc(OC)cc3)CC4=O)n2)cc1 (centres undefined)	-2.16	0.03
O=c1c2cccnc2n(Cc2cccc(F)c2)c(=O)n1CCc1c[nH]c2ccccc12	1.07	1.1
Cc1nc2ncnn2c(N2CCN(c3ccccc3F)CC2)c1C	1.55	.
Cc1ccc(-n2nnc(-c3nc(-c4ccncc4)no3)c2N)cc1C	-1.47	.
CSc1ncc(Cl)c(C(=O)Nc2nc3ccc(F)cc3s2)n1	0.18	-1.93
O=C(NCCCN1CCc2ccccc2C1)NC1COc2ccccc2C1 (centres undefined)	0.87	.
Cc1nc(SCC(=O)N2CCc3ccccc32)c2c(=O)n(C)c(=O)n(C)c2n1	.	-1.94
Cc1ccc(C)c(NC(=O)C2CC3CCCN3C23C(=O)N(C)c2ccccc23)c1 (centres undefined)	0.01	.
CCCc1nnc2n1N=C(c1ccc(OC)c(Br)c1)CS2	0.18	1.14
COC(=O)Nc1c(C)n(C)n(-c2ccccc2)c1=O	1.39	-1.28
O=C(Cn1ncc2c3ccccc3n(Cc3ccccc3)c2c1=O)NCCCN1CCCC1=O	1.71	-1.54
O=C(c1ccc(Cl)c(NC2=NC3CS(=O)(=O)CC3S2)c1)N1CCN(c2ncccn2)CC1 (centres undefined)	1.71	.
Cc1ccc(OCc2nn3c(C(F)(F)F)nnc3s2)cc1	2.26	-0.66
CCOC(=O)C(C)NC(=O)c1nn(C)c2c1CSc1ccccc1-2 (centres undefined)	1.52	-0.26
O=C(Nc1ccccc1)OCc1cc(-c2ccccc2)c(C(F)(F)F)s1	.	-0.48
Fc1ccccc1-c1nnc(CN2CCN(c3ccccn3)CC2)o1	-0.96	-1.68
OCC1(C2=NOC(O)(C(F)(F)F)C2)CCCCC1 (centres undefined)	.	-0.72
COc1ccc(/C=C/c2nc(C#N)c(NCCCN3CCOCC3)o2)cc1OC	0.48	-2.09
Cc1nn(CCCC(=O)NCCC(C)C)c(=O)c2cc3sccc3n12	0.78	-0.12
N#Cc1nc(/C=C/c2cccs2)oc1N1CCN(C(=O)COc2ccccc2F)CC1	-1.23	-2.05
O=C(Nc1ccc(F)cc1F)c1cnn(-c2ccc(Cl)cc2)c1C1CCNCC1	-2.04	-0.37
CCOc1ccc(S(=O)(=O)Nc2ccc3c(c2)n(C)c(=O)n3C)cc1OCC	1.33	.

(more compounds)
SMILES	TAR Tat displ	CDC25B-CDK2 inh
C=CCNCC(=O)Nc1sc2c(c1C(=O)OCC)CCCC2	1.56	0.17
Cc1ccc(C(O)(c2ccccc2)C(CN2CCOCC2)c2ccccc2)cc1 (centres undefined)	1.81	0.13
CCC1CN(C(=O)NCCC(C)C)c2ccccc2O1 (centres undefined)	0.86	.
FC(F)(F)c1ccnc(N2CCC(NC(=S)NC3CC3)CC2)n1	.	-2.87
Cn1cccc1Cc1nnc(SCC(=O)Nc2cccc(F)c2)n1-c1ccc(F)cc1	-0.59	-0.92
CCCCSc1nc2c(cnn2-c2ccccc2)c(=O)[nH]1	.	-2.1
CCOC(=O)c1cc(NC(=O)c2cc3ccccc3oc2=O)sc1CC	.	-2.04
C=CCN(CC=C)Cc1c(O)ccc2oc(C)c(C(=O)NC3CCCC3)c12	1.04	-1.65
C=C(C)c1cccc(C(C)(C)NC(=O)N2CCCc3ccccc32)c1	0.48	-2.46
Cc1ccc(S(=O)(=O)n2ccnc2C)cc1C	1.56	-0.48
CN1CCN(C2CCN(C(=O)c3cccs3)CC2)CC1	.	-0.42
Cc1n(CC(=O)c2ccc(C(C)(C)C)cc2)c2ccccc2[n+]1C	1.39	-0.01
O=C(C1CCN(c2nn3c(=O)c4c(nc3s2)CCCC4)CC1)N1CCOCC1	2.13	.
O=C(NC(=O)c1ccccc1F)NC1CC1	.	0.33
Cc1ccc(CSCCC(=O)O)cc1	1.72	.
O=C(Oc1ccc([N+](=O)[O-])cc1C1SCCS1)c1ccc(Cl)cc1	.	-1.65
Cc1ccc(OC(C)c2nc3ccccc3[nH]2)cc1C (centres undefined)	1.06	1.44
O=S(=O)(c1ccc(Cc2ccc(S(=O)(=O)N3CCOCC3)cc2)cc1)N1CCOCC1	3.07	.
CC1(C)NC(=O)N(CC(O)CN2C(=O)CCC2=O)C1=O (centres undefined)	.	-1.07
CC(C)(C)C(=O)Nc1nc(CC(=O)N2CCN(C(=O)c3ccco3)CC2)cs1	0.37	.
c1ccc(CN2CCN(CCCNc3ccc4nncn4n3)CC2)cc1	.	0.53
O=C(COc1ccc(Cl)cc1)Nc1c[nH]c(=O)[nH]c1=O	0.73	0.5
Cc1ccc2[nH]c(=S)n(C3CC4C=CC3C4)c(=O)c2c1 (centres undefined)	.	-2.38
Cc1ccc(NCc2nc3nc(C)cc(C)n3n2)cc1	0.57	-0.03
CNC(=O)C(=O)NCC(c1cccs1)S(=O)(=O)c1cccs1 (centres undefined)	1.37	.

(next part)
SMILES	TAR Tat displ	CDC25B-CDK2 inh
Cc1nc(C)c(C(=O)Nc2nnc(C(C)C)s2)s1	0.63	-0.37
CC1CCCC(NC(=O)C2CCCN(S(=O)(=O)c3cccc4cccnc34)C2)C1C (centres undefined)	1.29	-1.68
CC(Sc1nnc2c3ccccc3nc(-c3ccccc3)n12)C(=O)NCC1CCCO1 (centres undefined)	1.21	.
CC(=O)N1N=C(c2ccc(Br)cc2)OC1c1cc(C)nc2ccccc12 (centres undefined)	0.53	.
O=C(NC1CCCC1)c1cccc(-c2nc(-c3ccccc3)no2)c1	1.35	.
CCN1CCN(c2nc(N)c([N+](=O)[O-])c(Nc3ccccc3OC)n2)CC1	2.72	.
O=C(O)CC1SC(=O)N(CC(=O)c2ccccc2)C1=O (centres undefined)	-0.19	0.76
Oc1ccccc1CNCc1ccccn1	1.58	0.48
COc1cc([C@@H]2c3cc4c(cc3[C@@H](O[C@@H]3O[C@@H]5CO[C@@H](C)O[C@H]5[C@H](O)[C@H]3O)[C@H]3COC(=O)[C@H]23)OCO4)cc(OC)c1O	0.46	.
Clc1cccc(-c2noc3ncnc(N4CCCC4)c23)c1	-0.45	-1.75
COc1ccc(-c2nnc(SCc3cc(=O)n4c5c(sc4n3)CCCC5)o2)cc1	-1.02	0.23
CN(C)c1nc(N(C)C)nc(N(C)C)n1	0.25	1.1
CN(CC(=O)N1CCN(c2ccccc2F)CC1)c1nnc(N2CCCC2=O)s1	2.43	-1
CS(=O)(=O)N1CCn2c(nc3ccccc32)C1	.	-1.42
CCOC(=O)Cn1c(=O)oc2cc(S(=O)(=O)NC3CCCCCCC3)ccc21	.	-1.88
Cc1ccc(-c2cc3ccccn3c2)cc1	2.23	.
CCSc1nc(N2CCCC2)c2c(c1C#N)CC(C)(C)OC2	0.85	-1.1
CC1=CC(C)(C)N(C(=O)CSc2nccc(C)n2)c2ccccc21	-0.22	-0.5
COCCOC(=O)c1cnc(Nc2nc3ccccc3o2)nc1C	-0.92	-0.8
COc1ccc(-c2c(C)nn3c(N)c(C#N)cnc23)cc1OC	-0.69	-0.24
Nc1c(C(=O)Nc2ccc(S(N)(=O)=O)cc2)sc2nc3c(cc12)CCCCC3	.	-1.78
CCCN[C@H]1CS(=O)(=O)C[C@@H]1S(=O)(=O)c1ccc(F)c(C)c1	0.12	-1.99
CC(Oc1ccc(OC(F)(F)F)cc1)C(=O)O (centres undefined)	.	-3.06
CC(C)c1ccc(N=C(N)N=C(N)N)c(Br)c1	.	-2.47
CCOc1ccc2[nH]c(C)c(CN3CCCC3)c(=O)c2c1	0.44	0.27

Following part.
SMILES	TAR Tat displ	CDC25B-CDK2 inh
C=CCn1c(SCCC(=O)O)nc2c1c(=O)n(C)c(=O)n2C	2.03	-1.92
C/C(Cc1ccccc1)=N\NC(=O)c1ccncc1	.	-2.53
COc1ccc(-c2nc(CSCc3csc(C)c3C)c(C)o2)cc1OC	2.26	.
Cn1c(Cn2c(=O)sc3ccccc32)nnc1SCC(=O)N1CCOCC1	.	-0.74
Cn1c(C(=O)NC2CCCC2)cc2oc3ccccc3c21	1.98	-2.59
CCCc1cc(=O)n2[nH]c(NC(=O)c3ccco3)nc2n1	-0.28	-1.81
CCOc1ccccc1NS(=O)(=O)c1c(C)nc2sc3ccccc3n2c1=O	1.92	.
CCCCSC1=C(C#N)C(=O)NC(CC(C)C)S1 (centres undefined)	-2.57	-2.05
CCc1ccc(OCc2nc(-c3ccc(C)cc3)no2)cc1	.	-0.36
CCOC(=O)C(C(=O)OCC)c1ccc(OCc2ccccc2)cc1	.	-1.6
O=C(Nc1cccnc1)c1ccc2snnc2c1	.	-1.25
O=C(CCN1CCC(c2ccc(Cl)s2)=N1)c1ccc(Cl)s1	.	-0.67
COc1ccccc1OC(C)C(=O)N(Cc1ccc(C)o1)C1CCS(=O)(=O)C1 (centres undefined)	1.33	-0.03
CCOC(=O)c1ccc(CSc2nc(-c3ccccc3)c(C#N)c(=O)[nH]2)cc1	1.13	0.96
COc1ccc(NS(=O)(=O)c2ccc(Cl)cc2)cc1	0.88	0.37
O=C(Nc1ccc(F)c(Cl)c1)Nc1nc2ccccc2s1	1.21	-0.47
Cc1csc2sc(/C=C(\C#N)S(C)(=O)=O)c(C)c12	.	-1.33
COc1ccc(Cn2cc3c(-c4ccccc4)nnc-3c3cc(OC)ccc32)cc1	1.74	-1.53
Cc1noc(/C=C/c2cccn2S(=O)(=O)c2ccccc2Cl)c1[N+](=O)[O-]	.	0.75
O=c1[nH]c2ccc(Nc3cc(N4CCOCC4)ncn3)cc2[nH]1	0.27	8.21*
O=C(C1CCN(c2nc(-c3ccc(Cl)cc3)no2)CC1)N1CCC(N2CCCCC2)CC1	1.61	.
O=C(CN1C(=O)c2cccnc2Oc2ccccc21)NCc1cccs1	1.31	.
O=C(CCCc1c[nH]c2ccccc12)Nc1cnc2ccccc2c1	1.56	.
CCc1nn2c(=O)cc(COC(=O)c3ccccc3)nc2s1	0.36	.
CC1Cc2cc(S(=O)(=O)N3CCn4c3nc3ccccc34)ccc2N1C(=O)C1CCC1 (centres undefined)	-0.48	.

Reprinted from the part before: six compounds, then new ones.
SMILES	TAR Tat displ	CDC25B-CDK2 inh
O=c1[nH]c2ccc(Nc3cc(N4CCOCC4)ncn3)cc2[nH]1	0.27	8.21*
O=C(C1CCN(c2nc(-c3ccc(Cl)cc3)no2)CC1)N1CCC(N2CCCCC2)CC1	1.61	.
O=C(CN1C(=O)c2cccnc2Oc2ccccc21)NCc1cccs1	1.31	.
O=C(CCCc1c[nH]c2ccccc12)Nc1cnc2ccccc2c1	1.56	.
CCc1nn2c(=O)cc(COC(=O)c3ccccc3)nc2s1	0.36	.
CC1Cc2cc(S(=O)(=O)N3CCn4c3nc3ccccc34)ccc2N1C(=O)C1CCC1 (centres undefined)	-0.48	.
Cc1ccc(C2CC(c3ccc(F)cc3)Nc3nc(N)nn32)cc1 (centres undefined)	0.91	0.75
O=C(Nc1nc2nc(-c3ccccc3)cc(=O)n2[nH]1)c1ccccc1F	1.33	-1.68
O=C(NCc1csc2ccc(Cl)cc12)c1ccno1	.	-1.04
CCOC(=O)c1c(NC(=O)CCC(=O)O)sc(C)c1C	0.76	-1.73
CCOc1cc(C2Nc3ccc4ccccc4c3C3=C2C(=O)CC(C)(C)C3)ccc1O (centres undefined)	-0.03	0.68
CCOc1ccc(C(=O)c2oc3ccccc3c2N)cc1	0.96	0.2
COC(=O)c1ccccc1CN1C(=O)C2CCCN2C(=O)c2ccccc21 (centres undefined)	2.2	-0.63
Cc1cc2c3c([nH]c2cc1S(=O)(=O)NC1CCCc2ccccc21)CCCC3=O (centres undefined)	12.5	.
Cn1ccnc1C(O)c1ccccc1 (centres undefined)	-0.49	-1.34
CCOC(=O)C1CCCN(C(=O)C(=O)Nc2ccc3nc4n(c(=O)c3c2)CCCCC4)C1 (centres undefined)	.	-1.76
Cc1ccc2ncc(C(=O)Nc3ccc(F)cc3F)c(=O)n2c1	-0.84	-2.45
Cc1cc(C)cc(-n2ccn3c(CC(C)(C)CC(=O)O)nnc3c2=O)c1	0.1	0.37
CN(C)CCNC(=O)c1cc2ccccc2[nH]1	0.74	0.84
Cc1cc(Nc2nc3ccccc3c3nncn23)ccc1Br	-0.06	-0.35
O=c1c2cccc3c2c(nn1Cc1ccccc1Cl)-c1ccccc1-3	.	0.49
CC(C)(C)c1ccc(-c2nnc(NC(=O)C(Cl)Cl)s2)cc1	.	-1.33
CC(C(=O)N1CCN(c2ccc(F)cc2)CC1)n1sc2ccccc2c1=O (centres undefined)	1.49	-1.27
S=c1[nH]nc2n(Cc3ccccc3)c3ccccc3n12	.	-4.31
Cn1c(SCc2ccc(-c3nnco3)cc2)nnc1C(F)(F)F	.	-0.9
CCOCCCNC(=O)Cn1ncn2c(cc3cc(F)ccc32)c1=O	-0.14	-0.81
CC(=O)Nc1ccc(Sc2nc3ccccc3n3nnnc23)cc1	-0.37	-5.27
CCc1ccc(Nc2nc3ccc(C)cc3n3nnnc23)cc1	1.28	.
N=C1C(c2nc3ccccc3[nH]2)=C(O)CN1Cc1ccc2c(c1)OCO2	-0.81	-0.82

Six records drawn at random from those above, as already listed:
SMILES	TAR Tat displ	CDC25B-CDK2 inh
CCOc1cc(C2Nc3ccc4ccccc4c3C3=C2C(=O)CC(C)(C)C3)ccc1O (centres undefined)	-0.03	0.68
CC(C)(C)c1ccc(-c2nnc(NC(=O)C(Cl)Cl)s2)cc1	.	-1.33
N=C1C(c2nc3ccccc3[nH]2)=C(O)CN1Cc1ccc2c(c1)OCO2	-0.81	-0.82
Cc1ccc2ncc(C(=O)Nc3ccc(F)cc3F)c(=O)n2c1	-0.84	-2.45
Cn1ccnc1C(O)c1ccccc1 (centres undefined)	-0.49	-1.34
O=c1c2cccc3c2c(nn1Cc1ccccc1Cl)-c1ccccc1-3	.	0.49
